S aureus helic – blocks Staphylococcus aureus DNA helicase; purified S. aureus helicase, fluorescence unwinding assay; about half of the hits fall short of the stated cut; inhibition, %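 (tested at about 80 µM)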; 0.05% of 120,000 active;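 active means both duplicates at 50% or more, or one of them with a favoured structure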;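 further: 0% = mean of negative control wells and 100% = mean of positive control wells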
MgrA DNA FP – alters Staphylococcus aureus MgrA binding to DNA; fluorescence polarization; inhibition, %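 (about 10 µg/mL by stock and volumes)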; 0.13% of 84,000 active; AID 602314;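 active means above 50% in either of two replicates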;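 further: 0% = protein plus DNA without compound and 100% = DNA alone without protein; higher means less MgrA bound to DNA so lower polarization; one replicate is shown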
An asterisk follows results filed as active; . = no result given; & = joins results of further samples. A portion of the library; rates above refer to the full screens.

Order of results – S aureus helic, MgrA DNA FP
- Cc1ccc(C)c(N2CCN(c3cc4c(nn3)Oc3ccccc3N4C)CC2)c1
→ -35, .
- Cc1cc(C)n(-c2ccc(C(=O)OCCN3C(=O)c4ccccc4C3=O)cc2)n1
→ 6, .
- O=C1CC(c2ccccc2)N=C(SCC(=O)NC2CCCCC2)N1 (stereo not given)
→ -1, -0.9
- COc1ccccc1NC(=O)c1ccc(NC(=O)CSc2nnc(C)n2N)cc1
→ 20, .
- O=C(O)CCC1(CCC(=O)O)CCCCC1=O
→ -5, -2.5
- Cc1cccc(C)c1NC(=S)NCc1ccco1
→ ., 0.9
- COc1cc(OC)cc(C(=O)N(C)Cc2ccccc2C)c1
→ -20, .
- COc1ccc2c(c1)CC/C(=C/c1ccc(N3CCOCC3)cc1)C2=O
→ -14, .
- CC(=O)Nc1ccc(-c2nc3ccccc3o2)cc1
→ -17, -1.1
- O=C(Nc1cccc(C(F)(F)F)c1)C(NCCN1CCOCC1)c1ccccc1 (stereo not given)
→ 26, .

Other records follow:
Order of results – S aureus helic, MgrA DNA FP
- Cc1c(C(=O)OCc2nc(-c3cccc(Cl)c3)no2)sc2nc3n(c(=O)c12)CCC3
→ 6, .
- CCCn1c(CNC(=O)c2cc(OC)c(OC)c(OC)c2)nc2ccccc21
→ 8, 0.7
- COC(=O)Cc1cc(=O)n(-c2nc3ccccc3s2)[nH]1
→ 0, .
- COc1ccc(-c2nc3ccccn3c2NC(=O)C(C)C)cc1
→ 14, .
- O=C(O)c1ccc2[nH]c(=O)c(=O)[nH]c2c1
→ 13&-19, -5.0&-3.8
- CCCC(=O)Nc1cc(C)c(NC(=O)C23CC4CC(CC(C4)C2)C3)cn1
→ 6, 0.5
- Cc1ccccc1Cn1c2ccccc2c2cnn(CC(=O)NCCN3CCN(C)CC3)c(=O)c21
→ 2, .
- CC(C)CC1(C)OCC(C[N+]2(C)CCCCC2)O1 (stereo not given)
→ 2, -0.9
- O=C1C(/C=N/c2[nH]ncc2-c2ccccc2)=C(O)c2ccccc21
→ ., 0.6
- CCN(CC)CCN(C)C1CCC(c2ccccc2)CC1 (stereo not given)
→ 8, -1.3

More results:
Order of results – S aureus helic, MgrA DNA FP
- c1cc2c(cc1C1CCCCC1)c1c3n2CCN=C3CCC1
→ 1, 0.9
- O=C(CSc1nc2ccccc2o1)Nc1ccc2c(c1)C(=O)c1ccccc1C2=O
→ ., 0.0
- CCOC(=O)c1c(C)oc2nc(COC(=O)c3cc(-c4ccc(Cl)cc4)nc4ccccc34)nc(N)c12
→ -12, .
- CCCCc1ccc(NC(=O)NC2Cc3ccccc3C2)cc1
→ ., -0.6
- CC(C)CCNC(=O)c1cccc(Cl)c1
→ 8, -2.5
- Cc1nn(C(=O)c2sc3ccccc3c2Cl)c(C)c1Sc1ccccc1[N+](=O)[O-]
→ ., 0.0
- CCCCn1c(SCC(=O)OCC)nc2c(sc(=S)n2CCc2ccccc2)c1=O
→ 8, 0.3
- Cc1oc2nc[nH]c(=O)c2c1C(=O)NCc1ccccc1
→ -32, .
- FC(F)(F)C1(C(F)(F)F)N=C(c2ccccc2)OC(N2CCCCC2)=N1
→ 4, 2.1
- O=C(C1CCN(c2nnc(-n3cccc3)s2)CC1)N1CCCCC1
→ 0, -1.2

Continuation:
Order of results – S aureus helic, MgrA DNA FP
- Clc1ccc(Sc2c(-c3ccccc3)nc3ncccn23)cc1
→ 4, -0.4
- Nc1nc(SCC(=O)NCc2ccccn2)nc2sc3c(c12)CCCC3
→ -13, .
- O=C(NCCc1ccccn1)C1CCN(C(=O)c2ccc(F)cc2)CC1
→ -9, .
- CCn1c(C)cs/c1=N\C(=S)Nc1ccccc1C
→ -6, 0.2
- O=C1CCCc2nc(-c3ccc(O)cc3)ncc21
→ ., 1.8
- Cc1ccc(-c2cc(C(=O)N3CCCN(C)CC3)c3ccccc3n2)cc1
→ 6, -3.3
- Cc1ccc(-c2cc(-c3ccco3)c(C#N)c(SCC(=O)Nc3ccc(Cl)c(Cl)c3)n2)cc1
→ -29, .
- O=C(Cn1ccc(C(F)(F)F)n1)Nc1cccc(C(F)(F)F)c1
→ ., 0.2
- COc1cccc(N(CC(=O)Nc2ccc(C)cc2)S(C)(=O)=O)c1
→ 13, 4.7
- CCOc1ncccc1C(=O)Nc1cccc(C(=O)Nc2cccc(S(=O)(=O)CCO)c2)c1
→ 6, -1.1

The list goes on:
Order of results – S aureus helic, MgrA DNA FP
- CCOC(=O)C1CCN(C(=O)c2ccc(OCC)cc2)CC1
→ 4, 4.5
- CCOC(=O)/C(N=Nc1c(C)n(C)n(-c2ccccc2)c1=O)=C(/O)c1ccccc1
→ -14, .
- CC1(C)Cc2c(cnn2-c2ccccc2)C(=O)/C1=N\NC(=O)c1ccncc1
→ 37, .
- O=C(CSc1nnc(-c2ccccc2O)o1)Oc1ccc(OCc2ccccc2)cc1
→ 1, 2.0
- CC(C)CC(NC(=O)C1CCCCC1)C(=O)N1CCN(c2ccccc2F)CC1 (stereo not given)
→ 12, -3.0
- NCc1ccc(Cl)cc1
→ -7, .
- O=C(Oc1ccc(Oc2ccccc2)cc1)c1ccc([N+](=O)[O-])cc1
→ ., -2.4
- Cc1ccc(C(=O)OCC(=O)NCC2CCCO2)c(C)c1 (stereo not given)
→ 14, 0.1
- CC1CCCCN1C(=O)Cc1ccc(Cl)cc1 (stereo not given)
→ 17, -0.8
- CC(=O)NS(=O)(=O)c1ccc(NC(=O)c2cn3ccccc3n2)cc1
→ -1, .

Other records
Order of results – S aureus helic, MgrA DNA FP
- CC(OC(=O)c1ccccc1F)C(=O)N1CCc2ccccc21 (stereo not given)
→ -6, .
- O=C1NCCc2c1[nH]c1c(Cl)ccc(Cl)c21
→ ., 0.4
- O=C(COCc1cc(-c2ccc(F)cc2)on1)Nc1ccc(F)cc1F
→ 17, -0.9
- COc1ccc(OCC(=O)Nn2cnnc2)cc1
→ -3, -0.9
- O=C1N=c2ccccc2=C1c1sc(N2CCOCC2)nc1O
→ 7, 2.2
- CC(=O)Nc1ccc(S(=O)(=O)N[C@@H](C)C(=O)N2CCN(C/C=C/c3ccccc3)CC2)cc1
→ 8, .
- O=C(Cn1ncn2nc(-c3cccs3)cc2c1=O)NCCCN1CCCCCC1
→ 17, .
- CC1CCCCN1S(=O)(=O)c1ccc(C(=O)Nc2nc3ccc4ccccc4c3s2)cc1 (stereo not given)
→ 9, 0.8
- CC1CCCCC1NC(=O)C1CCCN(c2nnc(-n3cccc3)s2)C1 (stereo not given)
→ 14, .
- CCOC(=O)C(Cc1c[nH]c2ccccc12)NC(=O)CN1C(=O)c2ccccc2C1=O (stereo not given)
→ ., -0.3

Other structures
Order of results – S aureus helic, MgrA DNA FP
- COc1ccc(N(C(=O)Cn2nnc3ccccc32)C(C(=O)NCC2CCCO2)c2sccc2C)cc1 (stereo not given)
→ -7, 0.3
- CC(=O)O/N=C(\N)c1ccc(N2CCN(c3ncccc3C(F)(F)F)CC2)nc1
→ -13, .
- Oc1ccc(-c2cnc3ccccc3n2)cc1
→ 1, 12
- Nc1ccc(S(=O)(=O)NCc2ccco2)cc1
→ 26, .
- O=C(CCc1ccccc1)OCc1nnc(-c2ccc(Br)cc2)o1
→ 13, .
- Cc1cc(NC(=O)CSc2nc3nccnc3c(=O)n2Cc2ccco2)n[nH]1
→ -25, .
- CCOc1ccccc1-c1cc(C(=O)Nc2ccon2)c2ccccc2n1
→ 13, .
- CCN(Cc1ccncc1)Cn1nc(C(=O)O)c2ccccc21
→ -6, .
- Cc1cc(N2CCN(C)CC2)nc2ccc(NC(=S)N3CCCCC3)cc12
→ -3, -2.2
- Cc1ccc(NC(=O)CS(=O)CC(=O)Nc2ccc3c(c2)CCC3)cc1 (stereo not given)
→ 7, 0.0

Continued:
Order of results – S aureus helic, MgrA DNA FP
- O=C(NCCCn1ccnc1)c1ccc2c(c1)OCO2
→ 2, .
- COc1ccc(C=Nc2nc3ccccc3nc2N2CCCC2)cc1
→ -43, .
- COc1ccc(OCc2nc3ccccc3n2C)cc1
→ 6, .
- CC(C)n1ncc2c1N=C(c1ccco1)N(C)C2c1ccccc1 (stereo not given)
→ 4, .
- Cc1ccc(CN(C)C(=O)c2cccc(S(=O)(=O)N(C)C)c2)o1
→ -9, .
- Cc1ccc(C)c(OCc2nnc(SCC(=O)NC(=O)NCc3ccco3)o2)c1
→ 2, .
- O=C(O)/C=C/C(=O)Nc1ccccc1SCc1ccccc1Cl
→ ., -1.2
- c1ccc(N=P(c2nc3ccccc3o2)(N2CCOCC2)N2CCOCC2)cc1
→ 17, .
- Cc1ccc(N(C)C(=O)N2CCN(c3ccccn3)CC2)cc1
→ 5, 1.4
- CNS(=O)(=O)c1ccc(NC(=O)c2ccc(C)o2)cc1
→ 4, 1.2

Going on with the list.
Order of results – S aureus helic, MgrA DNA FP
- CC(=O)N1CCN(C2CCSC2)CC1 (stereo not given)
→ 4, -3.5
- Cc1ccc(NC(=O)c2oc3ccccc3c2NC(=O)c2ccccc2)cc1
→ 18, 0.1
- CCNCC1OCCc2ccccc21 (stereo not given)
→ -2, .
- CC(C)C(NC(=O)OCc1ccccc1)C(=O)O (stereo not given)
→ -19, 2.1
- O=C(CCC(=O)c1ccc(Br)cc1)Nc1cccnc1
→ -9, -0.3
- O=C(CSc1ccccc1)N1c2ccccc2Sc2ccccc21
→ ., 0.4
- CCOc1ccc2c(c1)C(C)=CC(C)(C)N2C(=O)CSc1nnc(C2CC2)n1C
→ 6, .
- O=C(O)CSCC(=O)Nc1ccc2c(c1)C(=O)OC2
→ ., -11
- COc1cccc(/C=N/N(CCO)C2=NS(=O)(=O)c3ccccc32)c1
→ -29, .
- CC(=O)N1CCN(C(=O)CSc2ncnc3ccccc23)CC1
→ -1, .

Other entries:
Order of results – S aureus helic, MgrA DNA FP
- CCN(C(=O)C1CCC1)c1nc2c(C)cccc2s1
→ 4, .
- CCC(=O)c1ccc(OC(=O)C2c3ccccc3Oc3ccccc32)cc1
→ 9, 2.0
- COc1ccc(/C=C(\C#N)c2ccc([N+](=O)[O-])cc2)cc1[N+](=O)[O-]
→ ., -0.5
- CC(=O)N(C)Cc1nc2ccccc2n1CC(=O)N(C)c1ccccc1
→ -18, .
- Cc1ccc(OCc2nc(-c3ccc(C(=O)NCCCN4CCN(Cc5ccccc5)CC4)cc3)oc2C)cc1
→ -25, .
- COc1ccc2[nH]cc(CCNC(=O)c3ccco3)c2c1
→ 0, -1.1
- Cc1cccc(C)c1OCC(=O)Nc1ccc2c(c1)OCO2
→ -3, .
- c1ccc2c(CSc3nc4ccccc4s3)cccc2c1
→ -2, 3.2
- CCSc1nnc(-c2ccc(Cl)cc2)c2ccccc12
→ ., -0.3
- CC1CCc2c(sc3nc(-c4cc5ccccc5oc4=O)[nH]c(=O)c23)C1 (stereo not given)
→ -23, 3.1

The closing 7 entries of the section above open the next one.
Order of results – S aureus helic, MgrA DNA FP
- CC(=O)N(C)Cc1nc2ccccc2n1CC(=O)N(C)c1ccccc1
→ -18, .
- Cc1ccc(OCc2nc(-c3ccc(C(=O)NCCCN4CCN(Cc5ccccc5)CC4)cc3)oc2C)cc1
→ -25, .
- COc1ccc2[nH]cc(CCNC(=O)c3ccco3)c2c1
→ 0, -1.1
- Cc1cccc(C)c1OCC(=O)Nc1ccc2c(c1)OCO2
→ -3, .
- c1ccc2c(CSc3nc4ccccc4s3)cccc2c1
→ -2, 3.2
- CCSc1nnc(-c2ccc(Cl)cc2)c2ccccc12
→ ., -0.3
- CC1CCc2c(sc3nc(-c4cc5ccccc5oc4=O)[nH]c(=O)c23)C1 (stereo not given)
→ -23, 3.1
- CCCS(=O)(=O)c1cscc1NC(=O)c1c(-c2c(F)cccc2Cl)noc1C
→ ., 0.5
- CCC(CO)Nc1ncnc2sc3c(c12)CCCC3 (stereo not given)
→ 7, .
- Cc1noc(C)c1CSc1nc(-c2ccccc2)c(-c2ccccc2)n1CC1CCCO1 (stereo not given)
→ 5, .
- O=S(=O)(c1ccc(Cl)cc1)N1CCCN(Cc2ccc(Cl)cc2Cl)CC1
→ ., 1.0
- O=c1c2cccc3c2c(nn1CN1CCOCC1)-c1ccccc1-3
→ -17, .
- CC1(C)C(=O)C2(CCCCC2)C(=O)OC1C(=O)c1ccccc1 (stereo not given)
→ 3, 1.8
- COCCn1c(SCC(=O)Nc2sc(C)c(C)c2C#N)nnc1C(C)C
→ 7, -0.5
- O=C(CCCc1ccccc1)Nc1ccc2c(c1)OCCO2
→ 6, 2.0
- Cn1c(Cn2c3ccccc3c3ccccc32)nnc1SCC(=O)O
→ ., -6.0
- O=C(NC12CC3CC(CC(C3)C1)C2)c1ccccc1Cl
→ -18, 0.2

Further compounds
Order of results – S aureus helic, MgrA DNA FP
- O=C1CN(S(=O)(=O)c2ccc3[nH]c(=O)ccc3c2)CC(=O)N1CCc1ccccc1
→ 4, -0.5
- O=C(CSC1=NCCS1)Nc1ccccc1Cl
→ 17, -3.0
- CC1(C)CC2(CCCN(C(=S)Nc3ccccc3)C2)CCO1 (stereo not given)
→ 6, 1.8
- CCOc1ccc(C(=O)/C(C)=N/O)cc1
→ -19, .
- Cc1cc(=O)[nH]c(Nc2ccccc2)n1
→ -13, 2.8
- O=c1[nH]c(-c2ccccc2)nc2c1Cc1ccccc1O2
→ 5, 2.3
- CC1=C(C)CC(C(=O)Nc2ccc3c(c2)OCO3)C(C(=O)O)C1 (stereo not given)
→ ., -0.4
- CN(C)S(=O)(=O)c1cc(C(=O)O)c(N2CCCCC2)cc1Cl
→ 0, .
- O=C(CSc1nc2ccccc2o1)NC1CCCc2ccccc21 (stereo not given)
→ -16, -0.6
- COc1cc(C(=O)NC2CCCc3ccccc32)ccc1OCc1c(C)noc1C (stereo not given)
→ -10, .

Other entries follow.
Order of results – S aureus helic, MgrA DNA FP
- CCCCN(c1ccccc1)S(=O)(=O)c1ccc2c(c1)oc(=O)n2CC(=O)OCC
→ -7, .
- CCn1cc(C(=O)N(C)CC(OC)OC)c(=O)c2cc(S(=O)(=O)N3CCc4ccccc4C3)ccc21
→ -1, .
- C=CCSc1n[nH]c(=O)n1C1CCCCC1
→ 9, .
- C=CCOCC(O)Cn1c(N)nc2c1c(=O)n(C)c(=O)n2C (stereo not given)
→ -10, 1.6
- CC1(C)CC(=O)C=C(Nc2sc3c(c2C#N)CCCC3)C1
→ -12, 1.3

From PubChem BioAssay
